UCH37 inh = human UCH37 deubiquitinating enzyme inhibition. inhibition, % (test concentration not listed). 330,000 compounds, 0.33% hits. Q9Y5K5. purified proteasome/UCH37, Ub-AMC cleavage fluorescence. AID 588478;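 active means mean of two replicates above 20%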;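 further: 0% = compound-free wells with enzyme and 100% = wells lacking proteasome; stock transfer was 100 nL into about 20 µL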
Target sequence (Q9Y5K5 whole entry, looked up): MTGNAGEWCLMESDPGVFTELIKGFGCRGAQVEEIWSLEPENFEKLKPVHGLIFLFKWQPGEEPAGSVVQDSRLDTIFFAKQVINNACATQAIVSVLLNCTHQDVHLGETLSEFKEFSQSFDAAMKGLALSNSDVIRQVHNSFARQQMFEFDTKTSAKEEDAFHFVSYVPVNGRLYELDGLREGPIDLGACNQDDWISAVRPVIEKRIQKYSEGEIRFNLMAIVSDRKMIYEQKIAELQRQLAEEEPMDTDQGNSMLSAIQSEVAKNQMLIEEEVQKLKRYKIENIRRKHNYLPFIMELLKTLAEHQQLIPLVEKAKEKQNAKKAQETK
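Signal – fluorescence, ex 355 nm, em 460 nm · System – Proteasome-bound UCH37 · Input – 0.15 nM proteasome as dispensed · Timing – 30 min preincubation with enzyme, 25 min cleavage at room temperature · Read-out basis – percent inhibition of cleavage signal versus uninhibited and no-proteasome wells · Medium – Tris-HCl pH 7.4 with ATP-MgCl2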
HNF4A DNA FP = change in binding of human HNF4 alpha to DNA. HNF4a-FITC DNA binding, fluorescence polarization, 1 h. activity change, % at 10 µM. 360,000 compounds, 0.3% hits. P41235; in the data active means activity change above about 30%, passing the limit was not always enough;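 further: controls were the assay level and a saturating level of protein; the project sought stronger binding though the title names inhibitors; some compounds called inactive have numbers as strong as hits; positive values seem to mean higher polarization but the record does not say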
Target sequence (P41235 whole entry, looked up): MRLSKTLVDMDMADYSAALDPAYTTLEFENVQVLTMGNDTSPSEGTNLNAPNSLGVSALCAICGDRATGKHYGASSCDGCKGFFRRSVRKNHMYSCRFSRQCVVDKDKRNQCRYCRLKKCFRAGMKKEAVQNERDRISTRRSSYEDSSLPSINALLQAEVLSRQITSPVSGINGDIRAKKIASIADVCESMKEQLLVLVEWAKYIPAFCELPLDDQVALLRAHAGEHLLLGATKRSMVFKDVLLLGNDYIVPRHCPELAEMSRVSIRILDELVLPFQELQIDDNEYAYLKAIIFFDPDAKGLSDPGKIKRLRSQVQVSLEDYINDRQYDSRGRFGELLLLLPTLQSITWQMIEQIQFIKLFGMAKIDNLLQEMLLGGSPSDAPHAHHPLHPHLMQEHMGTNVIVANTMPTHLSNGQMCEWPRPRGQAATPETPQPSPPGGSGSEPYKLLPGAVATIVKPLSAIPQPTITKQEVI
ALR inh = inhibitors of human sulfhydryl oxidase ALR | P55789 | purified ALR, DTT oxidation, H2O2 HRP-luminol luminescence | inhibition, % (concentration not given with the values) | 290,000 compounds, 3.8% hits | AID 485317;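 active means mean and each replicate at 75% or more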;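 further: stock transfer was 7.5 nL into about 7.5 µL; 0% = neutral wells and 100% = wells with inactivated enzyme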
Ecoli growth = inhibitors of Escherichia coli growth | OD600, 23 h; stronger effect = lower value | OD600 absorbance (no concentration beside the values) | 330,000 compounds, 0.21% hits;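 active means OD600 absorbance below the run mean of sample wells minus 3.6 SD, in any replicate, cut at about 0.56 in these data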;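 further: stock transfer was 300 nL into about 60 µL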
FGF22 binding = binders of recombinant human FGF22 by thermal shift. Q9HCT0. SYPRO orange fluorescence; percent of sucrose octasulfate shift, DMSO zero. calls only at 9.99 µM. 340,000 compounds, 1.5% hits;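 active means melting point raised past a set limit in the mean and every replicate; three in four hits are not shown here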
Target sequence (Q9HCT0 whole entry, looked up): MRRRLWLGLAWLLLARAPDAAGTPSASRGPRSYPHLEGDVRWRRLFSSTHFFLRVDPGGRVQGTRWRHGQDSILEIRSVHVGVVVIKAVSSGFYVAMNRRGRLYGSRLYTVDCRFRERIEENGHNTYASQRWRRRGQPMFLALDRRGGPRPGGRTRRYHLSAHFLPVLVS
B2AR ag = activates human beta-2 adrenergic receptor causing internalization | P07550 | 340,000 compounds, 0.43% hits | Am2.2-beta2AR cells, FAP receptor internalization, flow cytometry; reference of the scale not given here | response, % (no concentration beside the values);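 active means response above a set limit, near 3 SD of response in nonfluorescent compounds, cut at about 42% in these data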;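 further: stock transfer was 100 nL into about 11 µL; a reference agonist was the positive control; negative values mostly stem from fluorescent compounds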
LANA-H2A inh = blocks KSHV LANA binding to histone H2A/H2B | cell-free LANA-H2A/H2B peptide, fluorescence polarization | 320,000 compounds, 0.6% hits | Q9QR71 | inhibition, % (no concentration beside the values); in the data active means inhibition mostly above about 10%, no sharp cut-off; inactive means mostly below about 6.7%;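 further: stock transfer was 7.5 nL into about 10 µL; 0% = median of vehicle wells and 100% = median of positive control wells; one replicate is shown; the record names a cut of 25% in any replicate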
Starred values were filed as active, the others as inactive; i = inactive; / = not tested or not shown. The list is partial. The share of hits here may be higher or lower than overall.

SMILES	UCH37 inh	HNF4A DNA FP	ALR inh	Ecoli growth	FGF22 binding	B2AR ag	LANA-H2A inh
COCCn1c(SCC(=O)N2CCN(c3ccccc3)CC2)nc2c(c1=O)SC(C)C2 (centres undefined)	8.3	-6.8	12	0.75	i	0	2.2
CC(C)(C)NC(=O)C[n+]1ccc(C(N)=O)cc1	3.2	-0.4	0	0.69	i	3	-1.8
Cc1ccc(-n2cc(C(=O)c3cc(Cl)ccc3O)cc(C#N)c2=O)cc1	0.7	6.7	4	0.68	/	9	-1.6
COc1cc([N+](=O)[O-])ccc1NC(=O)CSc1nncn1-c1cccnc1	5.9	2.2	-5	0.68	i	-12	4.1
CCOC(=O)N1CCN(c2c(NCCCN(CC)CC)c(=O)c2=O)CC1	-0.2	-1.1	-20	0.75	/	-3	-4.5
COC(=O)c1oc2ccc(Br)cc2c1NC(=O)CCN1CCOCC1	-3.6	-2.5	4	0.62	/	-4	7.8
Cc1ccccc1-c1noc(-c2ccccc2C(=O)NCC2CCCO2)n1 (centres undefined)	0.2	5.2	/	0.65	i	4	3.3
c1cnc2ccc(C(c3nnnn3C3CCCCC3)N3CCN(C4CCCCC4)CC3)cc2c1 (centres undefined)	5.0	5.7	-4	0.66	/	-4	-0.4
Cc1ccc(/C=C2/SC(=O)NC2=S)o1	17	-55	/	0.65	/	1	/
Cc1ccc(S(=O)(=O)N2CCCCC2CCNC(=O)C(=O)NCC2CCCO2)cc1 (centres undefined)	/	-1.1	-55	/	i	6	6.9
Oc1ccc(CN2CCN(c3ccccc3)CC2)c2cccnc12	-0.3	0.2	3	0.62	/	-1	0.7
Cc1ccccc1NC(=O)c1cc2ccccc2o1	5.1	1.0	-2	0.7	i	5	-1.3
O=c1cc2c(nn1Cc1ccc(Cl)cc1)-c1ccccc1CC2	-0.4	-4.8	-5	0.66	/	-3	3.4
COc1ccc(CC(=O)c2cc(OC)c(OC)cc2CC(=O)O)cc1OC	1.9	-3.1	-7	0.72	/	-2	1.8
CCOC(=O)C1(CCCc2ccccc2)CCN(C(=O)c2cc(C)nn2CC)CC1	1.5	-0.4	0	0.69	i	-3	0.9
CN(C)c1oc(-c2ccccc2)nc1C#N	i	8.2	0	0.67	/	-12	-2.2
O=[N+]([O-])C1=C(Nc2cccc3ccccc23)CS(=O)(=O)C1	13	-2.3	-8	0.72	/	0	0.9
O=S(=O)(c1ccc(Cl)cc1)c1nc(-c2ccccc2F)oc1NCCCN1CCOCC1	0.2	-1.4	-8	0.7	i	-6	-11
COCCOc1ccc(C(F)(F)F)cc1NC(=O)c1ccccc1	3.4	5.6	-2	/	/	2	-4.2
O=C1OCCC1Sc1nc2ccccc2s1 (centres undefined)	1.6	2.6	98*	0.77	/	7	0.6

A second format for some results above.
Compound: CN(C)c1oc(-c2ccccc2)nc1C#N
  UCH37 inh: i
  HNF4A DNA FP: 8.2
  ALR inh: 0
  Ecoli growth: 0.67
  FGF22 binding: /
  B2AR ag: -12
  LANA-H2A inh: -2.2

Compound: O=[N+]([O-])C1=C(Nc2cccc3ccccc23)CS(=O)(=O)C1
  UCH37 inh: 13
  HNF4A DNA FP: -2.3
  ALR inh: -8
  Ecoli growth: 0.72
  FGF22 binding: /
  B2AR ag: 0
  LANA-H2A inh: 0.9

Compound: O=S(=O)(c1ccc(Cl)cc1)c1nc(-c2ccccc2F)oc1NCCCN1CCOCC1
  UCH37 inh: 0.2
  HNF4A DNA FP: -1.4
  ALR inh: -8
  Ecoli growth: 0.7
  FGF22 binding: i
  B2AR ag: -6
  LANA-H2A inh: -11

Returning to the listing; the two compounds before the break are reprinted first.
SMILES	UCH37 inh	HNF4A DNA FP	ALR inh	Ecoli growth	FGF22 binding	B2AR ag	LANA-H2A inh
COCCOc1ccc(C(F)(F)F)cc1NC(=O)c1ccccc1	3.4	5.6	-2	/	/	2	-4.2
O=C1OCCC1Sc1nc2ccccc2s1 (centres undefined)	1.6	2.6	98*	0.77	/	7	0.6
Cc1cc2occ(CC(=O)N(C)CC(=O)Nc3c(C)cccc3C)c2cc1C	2.5	0.6	2	0.62	i	-2	1.6
Cc1ccc(CN2C(=O)CCC2(C)C(=O)NCc2cccnc2)cc1 (centres undefined)	1.9	-2.4	0	0.74	/	0	-0.6
Cc1ccc(C(=O)Cn2c(C(=O)OCCO)cc3ccccc32)cc1	2.4	2.0	-18	0.7	i	-9	-4.7
CCOC(=O)Cc1cc(=O)n2[nH]c(C)c(-c3ccccc3)c2n1	-2.3	0.6	70	0.66	/	-1	-1.5
COc1ccc(OCc2nc3ccccc3[nH]2)cc1	-2.1	0.4	-1	0.64	/	0	-1.8
COc1ccc(Cl)cc1S(=O)(=O)NC(C)C(=O)NCc1cccnc1 (centres undefined)	-0.9	-0.2	1	0.71	i	-5	2.1
Cc1ccccc1-c1nc(CN2CCC(C(=O)NC3CCN(Cc4ccccc4)CC3)CC2)c(C)o1	4.2	2.2	-7	0.8	i	31	-0.1
NC(=O)c1ccccc1NC(=O)C(c1ccccc1)c1ccccc1	4.6	1.2	-1	0.68	i	-3	-1.1
CC(=O)NC(=O)Nc1sc(=S)n(C)c1C	8.9	3.1	11	0.72	/	-16	1.3
CC1CCCCN1C(=O)CN1C(=O)CN(C)C(=O)c2ccccc21 (centres undefined)	1.2	-3.2	0	0.68	/	-1	5.9
COc1cc(OC)c2nc(C)c3c(c2c1)N(c1ccc(O)cc1)CC3	/	0.8	26	/	/	-3	3.1
O=C(O)CCCn1cc(NC(=O)c2cccc(F)c2)cn1	0.3	1.6	-116	0.68	/	-4	-3.4
Cc1cccc(NC(=S)N(CCc2nc3cc(C)c(C)cc3[nH]2)Cc2cccnc2)c1	4.2	0.6	-5	0.66	/	20	-4.1
Cn1c(Oc2ccc(F)cc2)c(C=O)c2ccccc21	0.5	2.8	-5	0.65	i	-4	0.9
O=S(=O)(NNC(=S)Nc1ccc(S(=O)(=O)Nc2ncccn2)cc1)c1ccc(Br)cc1	1.6	0.7	36	0.71	i	6	4.7
C=CCN1C(=O)CSc2ccc(C(=O)OCC)cc21	0.4	-0.7	-11	0.72	/	2	-1.5
Cc1ccc(-c2cc(-c3ccccc3)[nH]c(=S)c2C#N)cc1	0.3	-1.2	43	0.73	/	4	-8.3
Cc1c(C)c2cc(Cl)c(OC(C)C(=O)NCCN3CCOCC3)cc2oc1=O (centres undefined)	-40	1.9	-4	0.66	i	2	3.2
CC1(C)NC(=O)N(CCOCCOc2ccc3ccccc3c2Br)C1=O	0.4	2.9	-13	0.73	/	-6	-2.0
CCCCNC(=O)c1cc2n(n1)C(C(F)(F)F)CC(c1ccccc1)N2 (centres undefined)	-1.7	0.0	6	0.74	/	0	2.5
O=C1CCC(C(=O)N(CCO)Cc2ccccc2)CN1CC1CCCCC1 (centres undefined)	1.3	6.3	-10	0.71	i	-3	-0.3
CN(C(=O)COC(=O)c1ccccc1C(=O)c1ccccc1)c1ccccc1	0.3	3.0	23	0.67	i	-3	1.1
Cc1cc2ccccc2n1CCNC(=O)C1CCCCC1	1.2	0.8	-22	0.73	i	6	-12
CC(C)c1nc(C(=O)N2CCc3c([nH]c4ccccc34)C2c2ccccn2)cs1 (centres undefined)	2.1	-1.1	-9	0.7	/	6	14*
Cc1cccc(C)c1NC(=O)COC(=O)c1cc(=O)[nH]c2ccccc12	-9.1	-2.1	0	0.68	i	2	1.7
CCOC(=O)N1CCC(NC(=O)c2cc(C(=O)NCC(OC)OC)ccc2CO)CC1	1.3	-3.6	-10	0.68	/	3	0.2
CCOc1ccc(OCC(=O)OCc2csc(CC(=O)Nc3ccccc3C)n2)cc1	3.9	-1.3	0	0.64	i	0	-2.0
S=C(Nc1ccccc1Cl)N1CCC(c2ccccc2)C1 (centres undefined)	0.6	0.1	1	0.64	/	1	-7.8
O=C(COC(=O)c1ccc2ncsc2c1)NCc1cccc(Cl)c1	-1.6	1.9	/	0.68	i	0	-2.5
O=C(NCc1ccc(Cl)cc1)C1CCCN(C(=O)c2ccc(Cl)cc2)C1 (centres undefined)	0.2	1.9	-1	0.69	i	-6	2.0
CC(C)(C)OC(=O)C[C@@H]1C/C=C\C[C@@H](CC(=O)N[C@H](CO)Cc2ccccc2)C(=O)NCCOC1=O	-2.0	4.8	1	0.72	i	-7	-192
COc1cc(OC)c(OC)cc1/C=C/c1ccnc2ccccc12	/	3.7	/	/	i	5	/
O=S(=O)(c1cccc(-c2cn3ccccc3n2)c1)N1CCCCC1	-6.2	-1.6	-10	0.67	i	-10	18*
CCN(Cc1ccc(OC)c(F)c1)C(=O)/C=C/c1ccc(S(=O)(=O)N2CCOCC2)cc1	1.0	1.4	-9	0.66	i	-7	-0.9
COc1cc(NC(=O)CN2CCN(CC(=O)Nc3ccccc3OC)CC2)cc(OC)c1	-0.4	-3.1	0	0.68	i	-1	3.4
CCCCNC(=O)CN(c1cccc(F)c1)S(C)(=O)=O	5.0	-1.5	1	0.74	/	2	0.1
Cc1ccc(NC(=O)C(C)OC(=O)c2n[nH]c3ccccc23)cc1 (centres undefined)	0.8	1.3	4	0.66	i	1	-3.7
Cc1ccc(-c2nn(-c3ccccc3)cc2C2CC(c3cccs3)=NN2C(=O)CCC(=O)O)cc1 (centres undefined)	-15	-1.6	9	0.73	/	11	4.9
Cc1nn(-c2ccccc2)c(N2CCCC2)c1/C=N/NC(=O)c1ccccc1O	/	-2.4	5	/	/	1	5.3
O=C(Cn1c(C(F)(F)F)nc2ccccc21)N/N=C/c1ccco1	/	-3.9	-5	/	i	-3	2.2
CCOC(=O)/C(C#N)=N/Nc1ccccc1C#N	/	1.8	4	/	i	3	0.9
CCOc1cccc(C(c2c(C)n(C)n(-c3ccccc3)c2=O)c2c(C)n(C)n(-c3ccccc3)c2=O)c1OC	1.2	-5.2	-14	0.69	i	-3	-1.0
O=C(NC(=S)Nc1ccccn1)c1cncc(Br)c1	3.1	66*	-4	0.7	i	-12	1.4
CCc1ccc(NS(=O)(=O)c2ccc3[nH]cc(C(=O)N4CCCCC4)c(=O)c3c2)cc1	-1.5	1.3	-4	0.69	/	0	-8.1
COc1cc(C2CC(C(F)(F)F)n3ncc(C(=O)O)c3N2)cc(OC)c1OC (centres undefined)	5.2	-2.3	0	0.71	/	0	1.0
CC(C)(C)CN1CCC(Oc2cccc(C(=O)NCCCOc3cccnc3)c2)CC1	4.7	-1.1	0	0.67	i	-13	-0.8
CC(=O)c1ccc([N+](=O)[O-])cc1	-1.5	-2.4	4	0.67	i	-2	1.6
CCCC(C)c1nnc(NC(=O)c2cc(C(=O)OC)cc([N+](=O)[O-])c2)s1 (centres undefined)	7.1	4.7	3	0.66	i	0	-4.6
CC[C@H](C)[C@H](NC(=O)CNC(=O)COc1cc2c(c3oc(=O)cc(C)c13)CCC(C)(C)O2)C(=O)O	i	1.8	1	0.67	i	-8	3.5
N#Cc1cc(Sc2ccccn2)c([N+](=O)[O-])cc1C#N	/	23	-2	/	i	1	3.0
C/C(=N\NC1=NCCN1)c1ccccc1	/	3.4	9	/	i	-6	-4.5
CC(C)N(NC(=O)c1cccc2ccccc12)C(C)C	0.5	-4.2	/	0.65	i	-2	-1.6
Cc1ccc(-n2c3c(c(=O)[nH]c2=O)C(NS(=O)(=O)c2ccc(C)cc2)(C(F)(F)F)C(=O)N3)cc1 (centres undefined)	2.8	3.2	-6	0.75	/	15	3.1
COC(=O)c1cccc(C(=O)N2CCCC(C(=O)c3cc(F)ccc3F)C2)c1 (centres undefined)	-1.1	2.5	/	0.69	i	6	1.9
O/N=C\c1cnc(N2CCN(c3ccccc3)CC2)s1	/	3.3	55	/	i	-1	-0.2
CN(C)CCCn1cnc2c(c1=N)C(c1ccccc1)c1ccc3ccccc3c1O2 (centres undefined)	7.0	3.0	-10	0.59	i	44*	-5.4
Cc1ccc(NC(=O)c2c([N+](=O)[O-])c(C(C)(C)C)nn2C)c(C)c1	5.5	-1.7	0	0.68	i	-1	3.7
CC(=O)NS(=O)(=O)c1ccc(NC(=O)CCC(=O)Oc2ccc(C)cc2)cc1	-1.1	-3.8	25	0.66	i	-5	0.1
